# Cruzain inh noDet – qHTS Assay for Promiscuous and Specific Inhibitors of Cruzain (without detergent); Cruzipain (Trypanosoma cruzi), P25779; purified cruzain, Z-FR-AMC fluorescence, no detergent; Potency, µM, for inactives: max response, negative = inhibition, hits mostly inhibitors; actives 2.3% (n = 200,000);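 also: plate controls were enzyme without inhibitor for no effect and buffer without enzyme for full effect; nearly all actives have a fitted effect of over 40% in size; top concentration of the series not given in the record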
# Target sequence (P25779 123-467 limits assumed): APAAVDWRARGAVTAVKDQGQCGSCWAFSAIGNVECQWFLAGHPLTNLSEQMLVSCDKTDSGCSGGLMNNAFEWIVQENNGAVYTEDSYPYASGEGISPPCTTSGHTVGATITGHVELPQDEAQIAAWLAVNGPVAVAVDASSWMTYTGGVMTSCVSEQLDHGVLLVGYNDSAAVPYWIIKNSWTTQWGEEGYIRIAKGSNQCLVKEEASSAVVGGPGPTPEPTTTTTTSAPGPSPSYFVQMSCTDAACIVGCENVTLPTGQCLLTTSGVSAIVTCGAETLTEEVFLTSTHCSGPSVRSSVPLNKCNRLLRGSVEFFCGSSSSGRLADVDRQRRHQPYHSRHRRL
#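 Detergent-free condition (0.00005% Triton X-100) in acetate buffer pH 5.5 with DTT. 1.5 nM enzyme and compound were pre-mixed 15 min, then 2 uM Z-FR-AMC substrate added; reaction progress from fluorescence change between first and third reads (60 s).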
# NS1 inh – qHTS Assay for Inhibitors of Influenza NS1 Protein Function | S. cerevisiae slowed by influenza A NS1, growth recovery by OD600 | Potency, µM (doses to about 46.1 µM), for inactives: top-dose activity, positive = more growth | actives 0.4% (n = 270,000) | AID 2326, 2010; active means well fitted rising curve with a large enough effect; inconclusive means small, poorly fitted or top-dose-only effect; inactive means no such curve, though single readings can be large or run the other way; also: nearly all actives have a fitted effect of over 50% in size
#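 In this qHTS, NS1 from influenza A is expressed in budding yeast, where it slows growth. Cells are switched from glucose to 2% galactose medium (pH 6.0, -URA), treated with compound, and growth recovery is read at OD600.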
# Cruzain Triton – qHTS Assay for Promiscuous and Specific Inhibitors of Cruzain (with detergent). Cruzipain (Trypanosoma cruzi), P25779. purified cruzain, Z-FR-AMC fluorescence, 0.01% Triton. Potency, µM, for the others: max response, negative = inhibition, actives largely listed as inhibitors. actives 0.43% (n = 200,000). AID 1478, 2009;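 also: plate controls were neutral wells for no effect and buffer without enzyme for full effect; nearly all actives have a fitted effect of over 40% in size; top concentration of the series not given in the record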
#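 Z-FR-AMC hydrolysis (2 uM substrate) by cruzain (1.5 nM) monitored kinetically at ex 360/em 450 nm after 15 min room-temperature compound exposure; 0.01% Triton X-100, pH 5.5, 5 mM DTT.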
# SARS PLP yeast – qHTS of Yeast-based Assay for SARS-CoV PLP. actives 0.19% (n = 330,000). Potency, µM (titrated, usually from 32.9 µM), for the others: at the top dose activity, positive = growth rescue. AID 485353, 2010. S. cerevisiae expressing SARS-CoV PLpro, growth rescue; control for the full effect not named in the record; active means well fitted rising curve with a large enough effect; inconclusive means small, poorly fitted or top-dose-only effect; inactive means no such curve, though single readings can be large or run the other way; also: 0% is about no effect; nearly all actives have a fitted effect of over 55% in size; growth read by luminescence after 48 h
# Marburg entry inh – qHTS for inhibitors of binding or entry into cells for Marburg Virus. Potency, µM (top dose mostly 37.8 µM), for the others: top-dose activity change, negative = inhibition, most hits filed as inhibitors. actives 1.8% (n = 300,000). Marburg virus pseudotyped entry inhibition, cell reporter; control for the full effect not named in the record; about a third of the inactives were read at about 46 µM; active = well fitted inhibition curve with a large enough effect; inconclusive = small, poorly fitted or top-dose-only effect, or effect the other way; inactive = flat fitted curve, though single readings scatter; tested in HEK293 cells; about a fifth of its hits are not listed in these tables; also: % is scaled to controls: 0 for no effect and ±100 for the full control effect; luciferase read-out
# 2A StopGo – High Throughput Screening for Foot and Mouth Disease Virus Antivirals; human cells with a luciferase reporter of 2A StopGo recoding; control for the full effect not named in the record; Potency, µM (doses to about 57.9 µM), inactives show top-dose signal change, negative = less light; actives 1.2% (n = 410,000); AID 1159524, 2015; active = well fitted falling curve with a large enough effect; inconclusive = small, poorly fitted or top-dose-only effect; inactive = no such curve, though single readings can be large or run the other way; tested in HEK293T cells; also: % is scaled to controls: 0 for no effect and ±100 for the full control effect; nearly all actives have a fitted effect of over 45% in size; luciferase light after 4 h
# LASV entry inh – qHTS for Inhibitors of binding or entry into cells for Lassa Virus; actives 1.2% (n = 300,000); Lassa virus pseudotype entry inhibition, cell reporter; control for the full effect not named in the record; Potency, µM (top dose mostly 37.9 µM), inactives show at the highest dose activity change, negative = inhibition, hits mostly inhibitors; active means well fitted inhibition curve with a large enough effect; inconclusive means small, poorly fitted or top-dose-only effect, or effect the other way; inactive means flat fitted curve, though single readings scatter; tested in HEK293 cells; also: % is scaled to controls: 0 for no effect and ±100 for the full control effect; nearly all actives have a fitted effect of over 50% in size; luciferase read-out
# RE007 growth inh – qHTS Assay for Inhibitors of the HIV-1 protein Vpr; actives 0.21% (n = 360,000); AID 651644, 2012; Potency, µM (top dose mostly 92.2 µM), without a hit: top-dose activity change, negative = less growth; S. pombe RE007 Vpr strain, BacTiter-Glo ATP luminescence, 24 h; control for the full effect not named in the record; active = well fitted falling curve with a large enough effect; inconclusive = small, poorly fitted or top-dose-only effect; inactive = no such curve, though single readings can be large or run the other way;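 also: % is scaled to controls: 0 for no effect and ±100 for the full control effect; nearly all actives have a fitted effect of over 50% in size; the assay follows cell death caused by Vpr and the record does not say whether a fall means rescue or toxicity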
#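 Fission yeast strain RE007, carrying one chromosomally integrated HIV-1 vpr copy, was seeded at OD 0.01 in PMG+AL medium with 23 nL pinned compound. After 24 h at 30 °C and 99% humidity, viability was read by BacTiter-Glo luminescence.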
# * = called active by the depositor; u = inconclusive; x = not tested or not shown; & = joins results of further samples; [ ] = remark or other dose. Unless noted, calls follow the shape of the dose curve; as a rule, active = well fitted curve in the direction sought with a large enough effect; inconclusive = small, poorly fitted or top-dose-only effect, or another doubt; inactive = no such curve, though single readings can be large; an effect the other way counts as inactive or inconclusive. Potency is read from the fitted curve at half-maximal effect.
SMILES,Cruzain inh noDet,NS1 inh,Cruzain Triton,SARS PLP yeast,Marburg entry inh,2A StopGo,LASV entry inh,RE007 growth inh
CCOCCOC(=O)C(C)Oc1ccc(Oc2ncc(Cl)cc2Cl)cc1 (centres undefined),u,-19%,-4.8%,22%,27%,2%,1%,-20%
CNc1ccc(/C=C/C(=O)c2ccc3c(c2)OCCO3)cc1[N+](=O)[O-],u,-25%,-8.7%,-34%,-4%,-8%,-6%,7%
Cc1ccccc1CCN(C(=O)c1csnn1)C(C(=O)NC1CCCC1)c1ccco1 (centres undefined),x,-1%,x,0%,-6%[46.1 µM],-3%,-7%,-10%
O=C(CC(C(=O)O)c1c(F)cccc1Cl)c1ccc(Cl)cc1 (centres undefined),x,6%,x,1%,x,2%,x,-6%
COC(=O)CSc1nnc2c(C)cc3cc4c(cc3n12)OCCO4,-3%,1%,1.0%,22%,1%,x,x,x
CC(C)C[C@H](NC(=O)Nc1ccc2c(c1)OCCO2)C(=O)O,x,3%,x,0%,x,-9%,x,6%
CCc1nnc(SCc2nc(-c3ccccc3F)oc2C)c2cc3sccc3n12,-29%,x,-1.9%,x,x,-8%,20%[46.1 µM],x
Cc1cnc(NC(=O)CSc2nnc(Cc3ccccc3)o2)s1,1%,0%,1.5%,1%,12%,36%[activator],6%,4%
CCOc1ccc(NC(=O)C2CC3CCC2C3)cc1 (centres undefined),x,x,x,x,u,44%[activator],22%,-10%
CCOC(=O)c1ccccc1N,13%,x,1.7%,7%,x,-9%,x,-3%
N#Cc1c(-c2ccccc2)cc(-c2ccccc2)nc1SCc1nnc(-c2ccccc2)o1,5µM*,1%,-1.1%,2%,u,0%,-6%,1%
Cn1c(=O)c2c(nc(CN3CCN(C(=O)c4ccco4)CC3)n2CC(N)=O)n(C)c1=O,x,1%,x,1%,x,4%,x,0%
CCCNC(=O)COC(=O)c1cccnc1Nc1ccccc1F,2%,-5%,-4.4%,10%,0%,-5%,17%,22%
COc1cc2c3c(c1)c(N=NC(N)=S)c(O)n3C(C)(C)C=C2C,x,-3%,x,1%,16%[46.1 µM],-21%,-8%[46.1 µM],-2%
O=C(NC12CC3CC(CC(C3)C1)C2)C1CCCN1C(=O)Nc1ccccc1 (centres undefined),x,3%,x,-2%,23%[46.1 µM],-9%,x,17%
CCc1cc2c(=O)[nH]c(Cc3ccccc3)nc2s1,u,-7%,-2.4%,6%,3%,4%,1%,-8%
COc1cc(OC)c(NC(=O)c2c(C)nn(-c3ccc(C)cc3)c2-n2cccc2)cc1Cl,-10%,x,-1.1%,x,x,-22%,-2%[46.1 µM],x
Cc1cc(C)cc(Oc2c(C(F)(F)F)oc3c(CN4CCCC(C)C4)c(O)ccc3c2=O)c1 (centres undefined),2%,x,-1.4%,x,-5%[46.1 µM],1%,1%[46.1 µM],x
CC(=O)[C@H]1CC[C@H]2[C@@H]3CC[C@H]4C[C@H](O)CC[C@]4(C)[C@H]3C(=O)C[C@]12C,7%&25%,-35%&-13%,-0.7%&-12%,-7%,u,-9%,-22%&-18%,-20%[18.4 µM]
COc1nc(OC)nc(N2CCC(NC(=O)C(Cc3ccc(C(C)C)cc3)NC(C)=O)CC2)n1 (centres undefined),u,-20%,-1.2%,6%,2%&-18%,u,-7%,-15%
O=C(NCc1ccco1)c1nn2c(C(F)(F)F)cc(-c3cccs3)nc2c1Br,3%,-4%,-24%,-5%,u,-20%,u,30%
COc1cccc(N2C(=O)c3cccnc3C2O)c1 (centres undefined),x,7%,x,1%,7%[46.1 µM],-15%,-2%[46.1 µM],4%
[O-][N+]1=c2ccc(Nc3ccccc3)cc2=NC12CCCCC2,-4%,-123%,-8.1%,-26%,2.2µM*,-8%,u,u
O=C(NCc1ccc(Cl)cc1)C1CCC(=O)N(C2CC2)C1 (centres undefined),x,-4%,x,1%,x,-4%,x,-2%
Cc1cc(/C=N/n2cnnc2)c(C)n1-c1ccc(OCc2ccc(Cl)cc2)cc1,-13%,-135%,-11%,-30%,u,u,u,6%

# (next part)
SMILES,Cruzain inh noDet,NS1 inh,Cruzain Triton,SARS PLP yeast,Marburg entry inh,2A StopGo,LASV entry inh,RE007 growth inh
CCOC(=O)N1CCN(C(=O)C(C)N(c2ccc(Oc3ccccc3)cc2)S(C)(=O)=O)CC1 (centres undefined),u,-27%,5.6%,-2%,-26%&-26%,u,-28%,4%
COc1ccc(-c2cc(C(F)(F)F)n3nc(C(=O)N4CCCCC4)cc3n2)cc1,u,-45%,-4.0%,-7%,u,x,-27%,4%
CSCCC(NC(=O)c1ccccc1Cl)C(=O)NCC(c1cccs1)N(C)C (centres undefined),x,x,x,2%,-10%,-24%,-22%,-32%
COc1ccc(NC(=O)c2c(C)oc3ccc(O)c(CN4CCCC(C)C4)c23)cc1 (centres undefined),-16%,x,-5.5%,x,u,-16%,-14%[46.1 µM],x
CCOc1ncccc1C(=O)OCC(=O)c1cc(OC)c(OC)c(OC)c1,x,-4%,x,0%,9%[46.1 µM],-19%,21%,7%
COc1ccc(NC2=CC(=O)CC(c3ccccc3)C2)cc1 (centres undefined),x,5%,x,0%,-1%[46.1 µM],15%,u,-1%
CCC(=O)OCCCCCCOc1ccc(C(=O)O)cc1,-2%,-14%,1.3%,-14%,15%,17%,0%,1%
O=C(CN1C(=O)c2cccc3cccc(c23)C1=O)N1CCCCCC1,-8%,-17%,-4.6%,-6%,14%,6%,-8%,8%
Oc1ccc(-c2ccccc2)cc1CN1CCCCCC1,x,2%,x,2%,u,0%,-10%[46.1 µM],-16%
O=C(N/N=C/c1ccoc1)c1cc(O)cc(O)c1,x,5%,x,-10%,-2%,-3%,9%,9%
CC(C)Oc1ccc2c3c(c(=O)oc2c1)CCC3,1%,-53%,-5.7%,-3%,u,21%,-22%,-6%
O=C(N/N=C\c1ccccc1)c1cccc(C(=O)N/N=C\c2ccccc2)n1,x,x,x,x,8%[14.2 µM],21%,-2%,16%
O=C(N/N=C/c1ccc(COc2ccc(Br)cc2)o1)c1ccc2c(c1)OCO2,x,0%,x,-8%,x,9%,x,-10%
CCOc1ccc(S(=O)(=O)N2Cc3ccccc3CC2C(=O)Nc2ccc(NC(C)=O)cc2)cc1 (centres undefined),u,x,-2.8%,x,14%[46.1 µM],-1%,u,x
O=C1CCN(CCc2ccccc2)CCN1CCSc1ccccc1,x,-17%,x,2%,x,46%[activator],x,-11%
O=C(Nc1ccccc1)c1ccc(-n2cnnn2)cc1,x,2%,x,0%,x,51%[activator],x,-11%
COc1ccc(OC)c(NC(=O)C2C3CCC(C3=C(C)C)C2C(=O)O)c1 (centres undefined),2%,-35%,6.2%,-7%,-5%,-2%,5%,-10%
Cc1cccc(NC(=O)CSc2nncn2-c2ccccn2)c1,x,x,x,4%,-2%[46.1 µM],3%,x,20%
CC(=O)/C(=C\Nc1ccc(OCc2ccccc2)cc1)c1ccccc1,6%,0%,-8.5%,-2%,-7%,-2%,-22%,-24%
Cc1cc(=S)[nH]c(=S)[nH]1,x,0%,x,-1%,2%,-13%,x,20%
O=c1c2sc3ccccc3c2n(Cc2ccccc2Cl)c(=O)n1Cc1ccccc1,7%,x,-1.6%,x,u,-15%,u,x
Cc1cc(/C=C(/C#N)c2nc3ccccc3[nH]2)c(C)n1-c1ccccc1C(=O)O,x,x,x,7%,-5%[46.1 µM],-1%,x,35%
Cc1cc(=O)oc2c3c(cc(OCC(=O)NCCCn4ccnc4)c12)OC(C)(C)CC3,x,-2%,x,0%,x,-12%,x,-4%
CC(=O)c1c(C)[nH]c(-c2ccccc2)nc1=S,x,7%,x,0%,15%[46.1 µM],17%,12%,-4%
O=C1/C(=C/c2cccc(F)c2)CSc2sccc21,-2%,-11%,-2.3%,11%,6%[46.1 µM],-12%,14%,u

# Following part.
SMILES,Cruzain inh noDet,NS1 inh,Cruzain Triton,SARS PLP yeast,Marburg entry inh,2A StopGo,LASV entry inh,RE007 growth inh
COC(=O)c1c(C)[nH]c(C(=O)/C=C/c2ccc(C)cc2)c1C,x,2%,x,-1%,x,u,x,4%
CN1N=C(C(=O)NC2CCCc3c2cnn3-c2ccc(F)cc2F)CCC1=O (centres undefined),x,-6%,x,6%,-30%,-21%,-26%,-11%
CCN(CC)C(=O)Cn1c(SCC(=O)Nc2ccc(C)c(C)c2)nc2ccccc21,u,x,6.7%,x,x,7%,u,x
O=S(=O)(c1ccc2nc(Nc3ccc(Br)cc3F)ccc2c1)N1CCCCC1,-19%,x,2.9%,x,x,-9%,0%[46.1 µM],x
COC(=O)COc1ccc2c(c1)O/C(=C\c1ccco1)C2=O,x,-40%,x,-7%,16%,32%[activator],8%,-12%
CC(C)(C)NC(=O)c1cccc2c1-c1ccccc1C2=O,x,-1%,x,1%,x,-12%,x,1%
CC(C)C(=O)Nc1nnc(SCC(=O)N2C(C)CCCC2C)s1 (centres undefined),x,8%,x,0%,u,13%,u,-2%
Cc1ccc(Nc2cc(C)nc3ccc(C)cc23)cc1,x,16%,x,3%,11µM*,-28%,u,-14%
CCCN(CC(=O)Nc1ccccc1C)C(=O)c1ccc(C)c(S(=O)(=O)N2CCCCC2)c1,x,x,x,-6%,u,8%,u,-11%
COc1cccc(NC(=O)Cn2c(=O)n(Cc3nc(-c4ccccc4)no3)c(=O)c3ccccc32)c1,-7%,x,-3.2%,x,x,0%,-7%[46.1 µM],x
CC(C)n1c(N2CCN(CC(=O)Nc3ccc4c(c3)OCCO4)CC2)nc2ccccc21,5%,-25%,0.7%,-17%,u,u,5%,-12%
Clc1ccc2[nH]cc(-c3nnnn3-c3ccc4ccccc4c3)c2c1,u,9%,7.7%,-5%,u,-1%,-18%,-3%
O=C(c1cccc(S(=O)(=O)Nc2cccc(C(F)(F)F)c2)c1)N1CCCCC1,25%,-8%,-5.2%,22%,1%,38%[activator],x,1%

# Screening data from PubChem.
